Rce1 inhib – yeast Rce1p protease inhibitors, primary screen, biochemical, fluorescence, cell-free homogeneous | CAAX prenyl protease 2 (Saccharomyces cerevisiae (strain ATCC 204508 / S288c)), Q03530 | yeast membranes, quenched prenylated peptide cleavage fluorescence | calls only | 290,000 compounds, 0.27% hits | AID 2563, 2010;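 active = fall in fluorescence gain of 50% or more versus controls, with final raw signal at or below 3038400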;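 note: plate controls were neutral control wells for no effect and wells lacking membranes for full effect; tested at 10 µM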
PABP FP inh – PABP poly(A) RNA binding inhibitors, primary screen, biochemical, fluorescence polarization, uHTS. Polyadenylate-binding protein 1 (Homo sapiens), P11940. inhibition, % at 35 µM. 290,000 compounds, 1% hits;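 active = 50% or more with normal probe brightness, or confirmed in later tests; about a fifth of its hits are not listed in these tables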;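 note: calls also rest on retests at 20 µM and on dose response follow-up; controls were probe without protein and protein plus probe with vehicle; some compounds called inactive have numbers as strong as hits; many hits fall short of the cut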
Target sequence (P11940 whole entry, looked up): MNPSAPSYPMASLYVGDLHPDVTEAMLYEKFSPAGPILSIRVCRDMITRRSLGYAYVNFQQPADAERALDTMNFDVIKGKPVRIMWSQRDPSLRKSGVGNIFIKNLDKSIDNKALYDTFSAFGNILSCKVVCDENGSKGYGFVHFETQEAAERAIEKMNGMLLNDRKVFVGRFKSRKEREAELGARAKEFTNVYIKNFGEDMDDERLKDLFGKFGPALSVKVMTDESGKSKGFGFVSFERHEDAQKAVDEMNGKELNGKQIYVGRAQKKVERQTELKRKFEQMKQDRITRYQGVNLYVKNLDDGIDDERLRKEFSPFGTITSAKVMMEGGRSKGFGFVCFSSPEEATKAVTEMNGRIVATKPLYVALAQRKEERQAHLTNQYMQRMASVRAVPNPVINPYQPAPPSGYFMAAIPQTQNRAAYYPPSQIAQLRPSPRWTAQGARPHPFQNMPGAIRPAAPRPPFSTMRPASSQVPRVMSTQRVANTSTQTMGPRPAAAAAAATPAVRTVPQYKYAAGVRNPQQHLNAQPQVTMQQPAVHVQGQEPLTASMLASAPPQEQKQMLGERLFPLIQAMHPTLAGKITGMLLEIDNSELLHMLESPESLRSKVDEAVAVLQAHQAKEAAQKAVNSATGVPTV
UUG fidelity – modulators of yeast start codon fidelity, primary screen, whole organism, S. cerevisiae, single point, plate reader. 350,000 compounds, 0.13% hits. AID 602363, 2012. activity score, % at 18.7 µM. S. cerevisiae UUG-firefly luciferase reporter, luminescence/redox ratio;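 active = replicate mean at a twofold rise or more, about +100% in these data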;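 note: firefly luciferase made from a UUG start codon reports start codon fidelity; reporter light over untreated wells divided by growth signal over untreated wells; some hits fall short of that in this replicate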
MT1-MMP act inh – blockers of MT1-MMP proenzyme processing, primary screen, HT1080 RFP-PRO-GFP cells, GFP/RFP fluorescence. Matrix metalloproteinase-14 (Homo sapiens), P50281. GFP/RFP ratio fluorescence, overnight; percent of plate control window, DMSO zero. GFP/RFP ratio change, % at 20 µM. 360,000 compounds, 0.061% hits;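 active = GFP/RFP ratio change of at least 30% with cell ATP level not reduced by more than half and red fluorescence within 50% of control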; note: strong numbers were not always called active
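Compound: 20 µM single dose, 1% DMSO / System: HT1080 RFP-PRO-GFP cells / Controls: DMSO and RFP-L50D-GFP cell wells / Read-out basis: GFP/RFP fluorescence ratio / Schedule: overnight compound exposure at 37 °C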
eIF4H inh – human eIF4H binding inhibitors, primary screen, translation initiation inhibitor project, biochemical, uHTS, fluorescence polarization. Eukaryotic translation initiation factor 4H (Homo sapiens), Q15056. eIF4H fluorescence polarization binding assay. 290,000 compounds, 0.94% hits. inhibition, % at 35 µM;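 active = 50% or more with normal probe brightness, or confirmed in later tests; about a fifth of its hits are not listed in these tables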;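 note: calls also rest on retests at 20 µM and on dose response follow-up; 0% = protein and probe with vehicle and 100% = probe without protein; strong numbers were not always called active; many hits fall short of the cut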
HIV Env fusion – inhibitors of HIV-1 Env-driven cell-cell fusion, primary screen, HeLa-JRFL effector, CEM21 target cells, luciferase. inhibition, % at 12.3 µM. 360,000 compounds, 1.1% hits;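 active = mean replicate inhibition score of at least 50 and every replicate individually at or above 50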;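 note: 0% = plate neutral controls and 100% = maraviroc near 300 nM; one replicate is shown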
CSC inhib – cancer stem cell viability inhibitors, primary screen, luminescence; cancer stem cell-like cells viability; AID 2717, 2010; 300,000 compounds, 1.1% hits; inhibition, % at 7.5 µM;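 active = mean at 75% or more and at least half the replicates too; tested in HMLE shEcad cells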;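 note: 0% = median of negative and 100% = median of positive control wells; the first replicate is given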
eIF4H inh retest – also measured in eIF4H inh; calls as there; inhibition, %; compound at 20 µM; confirmation average;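 mean of two retest wells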
PABP FP inh retest – further read-out of PABP FP inh, marked with its call; inhibition, %; compound at 20 µM; confirmation repeats;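 mean of two retest wells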
MT1-MMP act inh RFP – recorded beside MT1-MMP act inh, whose call it bears; RFP signal change, %; measured here: RFP expression control read;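 0 = vehicle wells; hits needed this value within 50% of zero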
Starred values were filed as active, the others as inactive; i = inactive; x = no result given; & = joins results of further samples; [ ] = another dose, or the depositor's remark. This is a subset (hit frequency here may not be typical).

SMILES	Rce1 inhib	PABP FP inh	UUG fidelity	MT1-MMP act inh	MT1-MMP act inh RFP	eIF4H inh	HIV Env fusion	CSC inhib	others
Clc1ccccc1-c1nnc2sc(CCc3ccccc3)nn12	i	9.9	-24.4	-3.2	-1.6	-0.5	x	-2.6
CCOC(=O)N1CCN(CC(c2ccccc2)c2ccccc2)CC1	i	5.0	0.5	-0.7	2.9	37.5	2.0	-1.7
Fc1ccccc1C1c2[nH]c3ccccc3c2CCN1CCCn1cccn1 (configuration not stated)	i	-6.4	x	-1.4	-1.6	0.5	-12.1	-4.4
CCc1nc2ccc(C(=O)NCCCn3ccnc3)cn2c1N(CC)C(=O)NCCc1ccccc1	x	x	-15.9	-0.7	1.2	x	1.5	x
O=C(Cn1ncc(N2CCCC2)c(Cl)c1=O)c1ccc(Cl)cc1	i	-4.6	x	-0.1	-3.0	2.1	-17.8	-1.1
COc1ccc(-c2cc(-c3ccccc3)nc3ncnn23)cc1	i	1.1	0.2	-2.8	-2.5	0.1	-36.2	-27.5
COc1cccc(C(=O)Nc2nnc(Cc3ccc(OC)c(OC)c3)s2)c1	i	1.3	x	4.6	-1.6	-5.2	-4.3	-2.7
Cc1ccc(S(=O)(=O)N2CCC(C(=O)N/N=C/c3ccncc3)CC2)cc1	i	-1.3	x	-1.0	0.4	-4.1	-8.8	1.3
Cc1ccc(NC(=S)Nc2cccc(-c3n[nH]c(=S)o3)c2)cc1	i	-2.6	x	2.7	0.9	3.6	-9.5	-12.8
Cc1ccc(S(=O)(=O)NCC(=O)NCC(=O)N2CCN(c3ncccn3)CC2)cc1C	i	1.0	-2.6	1.4	2.1	-0.8	1.1	3.9
O=C(COC(=O)c1nc(Cl)ccc1Cl)NCc1ccccc1	i	-3.2	x	3.1	6.2	-11.6	-0.1	-20.6
O=C(Oc1ccc(OC(=O)c2ccco2)c(S(=O)(=O)c2ccc(Cl)cc2)c1)c1ccco1	i	-11.2	x	0.7	-3.1	-8.1	2.4	-36.7
COc1ccc(C(=O)OCN2C(=O)c3ccccc3C2=O)cc1	i	10.8	x	-0.1	0.7	-15.3	13.9	-1.2
C=CCNC(=O)CN1C(=O)CSc2ccc(S(=O)(=O)N3CCOCC3)cc21	x	x	-0.9	-1.2	1.9	x	-17.7	x
NC(=O)CC(NC(=O)Cc1cccc2ccccc12)c1ccc(NCCCN2CCCC2=O)c([N+](=O)[O-])c1 (configuration not stated)	i	4.8	36.7	0.9	1.5	3.2	-11.4	14.3
CC(=O)Nc1ccc(S(=O)(=O)N2CCN(S(=O)(=O)N3CCOCC3)CC2)cc1	i	10.8	-11.6	-0.1	-1.8	2.3	1.1	x
CCOC(=O)c1c(N2C(=O)CC(Sc3ccccc3C(=O)O)C2=O)sc2c1CCCC2 (configuration not stated)	i	1.7	x	1.7	6.1	-12.7	22.1	-8.9
CN(Cc1ccccc1)C(=O)c1[nH]cnc1C(=O)NCc1ccccc1	x	x	2.7	2.6	4.0	x	14.6	-0.9
O=C(O)c1ccc(NC(=O)c2cccc(NC(=O)c3cccs3)c2)cc1	i	-3.0	-19.3	0.2	3.3	-3.3	x	-24.4
COc1cccc(OCC(=O)NCCS(=O)(=O)N2CCN(c3ccccc3)CC2)c1	x	x	-16.5	-1.6	0.4	x	32.7	x
COc1ccccc1N(CC(=O)NC(C)C)S(=O)(=O)c1cccs1	i	-2.3	-1.2	-5.5	-0.9	6.2	4.2	21.5
CC(Sc1nc(N2CCCCC2)c2c(c1C#N)CCCC2)C(=O)O (configuration not stated)	i	7.0	-9.1	2.1	0.8	-1.6	x	17.7
Cc1ccc(CN2CCC(C)(Oc3cccc(Cl)c3)C2)cc1 (configuration not stated)	x	x	3.4	4.3	-0.1	x	-16.5	x
Cc1sc2ncn(CC(=O)N3CCN(c4ccc(F)cc4)CC3)c(=O)c2c1S(=O)(=O)N1CCOCC1	i	15.3	-4.7	3.3	1.6	0.5	-8.4	-12.8
Cc1ccccc1C(=O)NCc1ccncc1	i	1.6	-11.7	-0.3	2.4	7.1	x	-9.1
Cc1cc(NC(=O)c2ccc3nc(C)sc3c2)no1	i	-6.0	-13.7	5.4	3.6	-3.3	x	-11.6
COc1ccc(CN(CCN(C)C)Cc2ccccc2)c(OC)c1	x	8.2	-1.9	-3.4	3.1	-9.0	-84.4	15.1
COc1ccccc1C(=O)N/C(=C\c1ccc(Br)cc1)C(=O)NCCC(=O)O	x	7.2	x	-0.3	4.6	-17.2	3.8	0.8
CC(=O)NS(=O)(=O)c1ccc(NC(=S)NC(=O)C(C)C)cc1	i	2.0	-15.7	0.0	6.4	65.1	x	1.3	eIF4H inh retest=-5.3;PABP FP inh retest=8.2
O=C(COc1ccc(S(=O)(=O)Nc2ccccc2)cc1)NCc1cccnc1	i	9.1	x	2.8	0.1	1.9	x	35.5
Cc1ccc(CCN2CC(C(=O)NCCN3CCOCC3)CC2=O)cc1 (configuration not stated)	i	-2.0	x	x	x	9.1	x	-14.0
CC=CCn1c(SCc2ccccc2)nc2c1c(=O)[nH]c(=O)n2C	x	x	-6.6	0.2	-2.8	x	-52.0	x
CC(C)=CCCC1=CCC2C(=O)NNC(=O)C2C1 (configuration not stated)	i	2.5	-3.4	3.2	4.8	-2.7	x	x
COc1ccc2[nH]cc(C(=O)CN3CCCC(C)(C)C3)c2c1	i	-16.1	-8.6	-3.1	-1.4	-15.7	7.4	-7.5
CC(NC(=O)CN1C(=O)NC(C)(c2cccc3ccccc23)C1=O)c1ccccc1 (configuration not stated)	i	3.0	-8.3	2.4	3.8	-14.6	-5.8	-3.3
CCCCNc1c(C(=O)OCC)c(C)nc2c1cnn2CC	i	x	-6.9	-0.3	1.2	x	4.1	16.9
CC1(C)C(=O)C2(CCCCC2)C(=O)OC1c1cccs1 (configuration not stated)	i	-6.2	-15.4	0.7	2.7	1.0	51.0	-0.2
CC1(C)CC(=O)C2=C(C1)N(c1ccc(F)cc1)C(=O)CC2c1ccsc1 (configuration not stated)	i	7.5	-29.9	1.2	4.3	-3.8	20.7	-3.9
COc1ccc(NC(=O)CN2CCCC2)cc1	i	12.2	0.6	0.7	-0.4	14.5	4.7	4.7
CN(CCOC(=O)C1c2ccccc2Oc2ccccc21)C(C)(C)C	i	3.7	x	0.3	1.5	-18.9	x	-19.0
O=C(Nc1ccc2c(c1)OCO2)c1cc(-c2ccc(O)cc2)on1	i	5.9	-12.6	2.7	-2.2	7.9	-41.7	101.2*
O=C(c1ccc2c(c1)[nH]c(=S)n1c3ccccc3nc21)N1CCN(c2cccc(Cl)c2)CC1	i	0.4	-3.4	0.0	-7.5	-10.9	22.4	20.5
CC1=C(C(=O)NC2CCCc3c2cnn3-c2cc(F)cc(F)c2)OCCO1 (configuration not stated)	i	-3.7	-16.5	0.0	-1.9	-8.1	-5.2	5.1
Cc1ccccc1-n1c(O)c(C=NC2CCS(=O)(=O)C2)c2ccccc2c1=O (configuration not stated)	i	8.8	x	-1.0	2.4	2.8	-13.0	-8.4
CC1CCCC(C(=O)O)N1C(=O)CCS (configuration not stated)	i	-8.2	-4.5	-2.0	-1.2	-8.5	-35.2	11.8
CCC1CCCCN1CCCNC(=O)c1cc2c(=O)[nH]c3ccccc3c2n1C (configuration not stated)	i	3.4	x	0.2	-1.7	-5.4	26.4	9.9
O=C(Nc1ccc2c(c1)CCC2)c1cccs1	i	-10.3	0.9	0.6	-3.1	-6.5	-89.4	1.0
COc1ccc(Cl)cc1NC(=O)C(=O)N/N=C/c1cc(C)n(-c2ccc(C)cc2)c1C	i	1.7	-16.2	-5.8	-5.4	-11.7	x	-2.1
CCCS(=O)(=O)N1CCN(C(=O)c2cc(OC)cc(OC)c2)CC1	i	6.0	-9.4	4.4	1.9	-2.7	-7.6	-10.1
COc1ccc(Cc2nnc(SCC(=O)NC3CCCCC3)n2C)cc1	i	2.8	x	-4.1	0.5	7.2	x	-11.4
O=C(Nc1cc(S(=O)(=O)N2CCOCC2)ccc1N1CCOCC1)c1ccccc1[N+](=O)[O-]	x	x	-8.8	4.3	-3.6	x	9.7	-19.2
CO/N=C(\N)c1nonc1N	i	-10.6	-8.4	-0.7	0.3	6.5	-2.5	-6.4
Cc1cc(Cl)ccc1OCC(=O)N/N=C/c1ccncc1	i	8.6	-18.6	-0.7	-3.8	-4.2	-4.6	x
COc1cccc(C=Nc2ccccc2C(=O)Nc2ccccc2)c1O	i	-4.0	-1.4	5.1	0.3	-5.3	0.6	-1.0
CC(=O)c1ccc(-n2nnnc2SCC(=O)Nc2sc(C)c(C)c2C#N)cc1	i	61.6	x	-4.1	-1.9	13.3	-19.9	1.4	eIF4H inh retest=2.4;PABP FP inh retest=0.2
O=C(C1=C[C@@H](c2ccccc2)C[C@@H](OCc2ccc(CO)cc2)O1)N1CCN(Cc2ccc3c(c2)OCO3)CC1	i	-9.8	-0.2&2.6&-15.8	0.3	-3.6	-1.6	-19.1[16.7 µM]	45.1
Cc1ccnc(SCC(=O)Nc2oc(-c3ccccc3)c(-c3ccccc3)c2C#N)n1	i	-6.4	-10.2	-4.5	-4.0	4.0	x	4.7
CCc1cccc(N(C)C(N)=Nc2cccc3ccccc23)c1	i	8.0	-7.8	-0.7	3.4	-14.1	16.2	-5.0
Cc1ccc(CCNC(=O)c2cccc(NC3=NC4CS(=O)(=O)CC4S3)c2)cc1 (configuration not stated)	i	-14.6	-20.5	0.9	2.1	-2.6	-0.6	-9.3
CCc1nnc(NC(=O)C2CCN(C(=O)c3ccco3)CC2)s1	i	-2.9	6.6	3.4	2.0	-4.8	-10.8	3.8

Among those listed so far, 5 contain a COOH group:
SMILES	Rce1 inhib	PABP FP inh	UUG fidelity	MT1-MMP act inh	MT1-MMP act inh RFP	eIF4H inh	HIV Env fusion	CSC inhib	others
CCOC(=O)c1c(N2C(=O)CC(Sc3ccccc3C(=O)O)C2=O)sc2c1CCCC2 (configuration not stated)	i	1.7	x	1.7	6.1	-12.7	22.1	-8.9
O=C(O)c1ccc(NC(=O)c2cccc(NC(=O)c3cccs3)c2)cc1	i	-3.0	-19.3	0.2	3.3	-3.3	x	-24.4
CC(Sc1nc(N2CCCCC2)c2c(c1C#N)CCCC2)C(=O)O (configuration not stated)	i	7.0	-9.1	2.1	0.8	-1.6	x	17.7
COc1ccccc1C(=O)N/C(=C\c1ccc(Br)cc1)C(=O)NCCC(=O)O	x	7.2	x	-0.3	4.6	-17.2	3.8	0.8
CC1CCCC(C(=O)O)N1C(=O)CCS (configuration not stated)	i	-8.2	-4.5	-2.0	-1.2	-8.5	-35.2	11.8

(list continues)
SMILES	Rce1 inhib	PABP FP inh	UUG fidelity	MT1-MMP act inh	MT1-MMP act inh RFP	eIF4H inh	HIV Env fusion	CSC inhib	others
O=C(O)c1cccn1Cc1ccccc1F	i	-2.6	-23.7	2.7	0.9	-10.6	3.0	-8.5
COc1ccccc1OCCNC(=O)CN(c1cccc(C)c1)S(=O)(=O)c1ccccc1	i	3.8	1.5	-4.0	-5.6	7.3	x	-1.8
CC(Oc1ccccc1)C(=O)N1CCN=C1SCc1ccccc1F (configuration not stated)	i	-6.4	-6.1	3.7	-3.2	-2.8	4.4	12.0
CC(C)(C)c1nnc(NC(=O)c2cccnc2Cl)s1	i	4.6	3.1	-3.2	0.4	8.0	-5.5	-15.2
